Cruzain inh Det = cruzain (T. cruzi) inhibition with detergent | P25779 | purified cruzain, Z-FR-AMC fluorescence, 0.01% Triton | Potency, µM, without a hit: max response, negative = inhibition, actives largely listed as inhibitors | 200,000 tested, 0.43% active | AID 1478;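 also: plate controls were neutral wells for no effect and buffer without enzyme for full effect; nearly all actives have a fitted effect of over 40% in size; top concentration of the series not given in the record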
Target sequence (P25779 123-467 limits assumed): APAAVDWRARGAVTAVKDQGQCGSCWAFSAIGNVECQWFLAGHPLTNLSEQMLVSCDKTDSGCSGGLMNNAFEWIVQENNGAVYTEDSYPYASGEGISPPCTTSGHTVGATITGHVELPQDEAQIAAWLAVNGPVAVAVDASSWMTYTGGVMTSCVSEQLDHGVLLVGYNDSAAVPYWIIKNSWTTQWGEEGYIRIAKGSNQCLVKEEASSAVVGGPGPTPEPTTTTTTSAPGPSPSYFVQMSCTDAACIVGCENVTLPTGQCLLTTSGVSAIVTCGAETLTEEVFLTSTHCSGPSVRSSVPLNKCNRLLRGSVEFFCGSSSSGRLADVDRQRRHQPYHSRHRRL
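Z-FR-AMC hydrolysis (2 uM substrate) by cruzain (1.5 nM) monitored kinetically at ex 360/em 450 nm after 15 min room-temperature compound exposure; 0.01% Triton X-100, pH 5.5, 5 mM DTT.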
MARV entry inh = blocks Marburg virus binding to or entry into cells | Potency, µM (series often up to 37.8 µM), without a hit: top-dose activity change, negative = inhibition, actives largely listed as inhibitors | Marburg virus pseudotyped entry inhibition, cell reporter; control for the full effect not named in the record; about a third of the inactives were read at about 46 µM | AID 540276 | 300,000 tested, 1.8% active; active = well fitted inhibition curve with a large enough effect; inconclusive = small, poorly fitted or top-dose-only effect, or effect the other way; inactive = flat fitted curve, though single readings scatter; tested in HEK293 cells; about a fifth of its hits are not listed in these tables; also: % is scaled to controls: 0 for no effect and ±100 for the full control effect; luciferase read-out
Cruzain noTriton = cruzain (T. cruzi) inhibition without detergent; 200,000 tested, 2.3% active; purified cruzain, Z-FR-AMC fluorescence, no detergent; AID 1476; P25779; Potency, µM, inactives show max response, negative = inhibition, actives largely listed as inhibitors;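 also: plate controls were enzyme without inhibitor for no effect and buffer without enzyme for full effect; nearly all actives have a fitted effect of over 40% in size; top concentration of the series not given in the record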
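Detergent-free condition (0.00005% Triton X-100) in acetate buffer pH 5.5 with DTT. 1.5 nM enzyme and compound were pre-mixed 15 min, then 2 uM Z-FR-AMC substrate added; reaction progress from fluorescence change between first and third reads (60 s).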
SARS PLpro yeast = inhibitors of SARS-CoV papain-like protease in yeast; S. cerevisiae expressing SARS-CoV PLpro, growth rescue; control for the full effect not named in the record; Potency, µM (highest dose often 32.9 µM), for the others: top-dose activity, positive = growth rescue; 330,000 tested, 0.19% active; AID 485353; active means well fitted rising curve with a large enough effect; inconclusive means small, poorly fitted or top-dose-only effect; inactive means no such curve, though single readings can be large or run the other way; also: 0% is about no effect; nearly all actives have a fitted effect of over 55% in size; growth read by luminescence after 48 h
2A StopGo = FMDV 2A StopGo reporter, luciferase signal; human cells with a luciferase reporter of 2A StopGo recoding; control for the full effect not named in the record; Potency, µM (doses to about 57.9 µM), inactives show top-dose signal change, negative = less light; 410,000 tested, 1.2% active; AID 1159524; active = well fitted falling curve with a large enough effect; inconclusive = small, poorly fitted or top-dose-only effect; inactive = no such curve, though single readings can be large or run the other way; tested in HEK293T cells; also: % is scaled to controls: 0 for no effect and ±100 for the full control effect; nearly all actives have a fitted effect of over 45% in size; luciferase light after 4 h
RE007 growth inh = less growth of the S. pombe RE007 Vpr strain; Potency, µM (doses to about 92.2 µM), without a hit: at the top dose activity change, negative = less growth; 360,000 tested, 0.21% active; S. pombe RE007 Vpr strain, BacTiter-Glo ATP luminescence, 24 h; control for the full effect not named in the record; active = well fitted falling curve with a large enough effect; inconclusive = small, poorly fitted or top-dose-only effect; inactive = no such curve, though single readings can be large or run the other way;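 also: % is scaled to controls: 0 for no effect and ±100 for the full control effect; nearly all actives have a fitted effect of over 50% in size; the assay follows cell death caused by Vpr and the record does not say whether a fall means rescue or toxicity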
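Fission yeast RE007 carrying one integrated HIV-1 vpr copy, seeded at OD 0.01 in PMG+AL medium with 23 nL pinned compound. Grown 24 h at 30 degrees; viability read by BacTiter-Glo luminescence after 5 min.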
Lassa entry inh = Lassa virus entry inhibition | Lassa virus pseudotype entry inhibition, cell reporter; control for the full effect not named in the record | Potency, µM (top dose mostly 37.9 µM), inactives show at the highest dose activity change, negative = inhibition, most hits filed as inhibitors | 300,000 tested, 1.2% active | AID 540256; active means well fitted inhibition curve with a large enough effect; inconclusive means small, poorly fitted or top-dose-only effect, or effect the other way; inactive means flat fitted curve, though single readings scatter; tested in HEK293 cells; also: % is scaled to controls: 0 for no effect and ±100 for the full control effect; nearly all actives have a fitted effect of over 50% in size; luciferase read-out
NS1 inh = blocks influenza NS1 protein function. S. cerevisiae slowed by influenza A NS1, growth recovery by OD600. 270,000 tested, 0.4% active. Potency, µM (series often up to 46.1 µM), without a hit: at the top dose activity, positive = more growth. AID 2326; active means well fitted rising curve with a large enough effect; inconclusive means small, poorly fitted or top-dose-only effect; inactive means no such curve, though single readings can be large or run the other way; also: nearly all actives have a fitted effect of over 50% in size
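Recovery from NS1-induced slow growth read by OD600 in budding yeast switched to galactose assay medium (pH 6.0, -URA) at 1:100 dilution. Compound 23 nl per well; the matching strain lacking NS1 serves as control.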
The depositor's hits bear a star; ? = inconclusive; / = not tested or not shown; & = joins results of further samples; [ ] = another dose, or the depositor's remark. Unless noted, calls follow the shape of the dose curve; as a rule, active = well fitted curve in the direction sought with a large enough effect; inconclusive = small, poorly fitted or top-dose-only effect, or another doubt; inactive = no such curve, though single readings can be large; an effect the other way counts as inactive or inconclusive. Potency is read from the fitted curve at half-maximal effect.

SMILES	Cruzain inh Det	MARV entry inh	Cruzain noTriton	SARS PLpro yeast	2A StopGo	RE007 growth inh	Lassa entry inh	NS1 inh
Cc1ccc(C(=O)Nc2ccc(S(=O)(=O)O)c3cc(S(=O)(=O)O)cc(S(=O)(=O)O)c23)cc1NC(=O)c1cccc(NC(=O)Nc2cccc(C(=O)Nc3cc(C(=O)Nc4ccc(S(=O)(=O)O)c5cc(S(=O)(=O)O)cc(S(=O)(=O)O)c45)ccc3C)c2)c1	-16.7%&-8.2%&1.1%	3.15µM*	?	/	-12.5%&-9.4%	/	8.88µM*	0.0%
COc1ccc(CCNC(=O)c2cnn3c(C(F)F)cc(C)nc23)cc1OC	1.6%	/	-6.3%	-0.7%	-14.6%	16.7%	/	11.2%
COc1ccc(Cc2nc3ccccc3n2C)cc1	/	8.9%[46.1 µM]	/	19.1%	-10.5%	-0.4%	18.6%	/
CC(C)CC(=O)N/N=C/c1c(N)n(C)c(=O)n(C)c1=O	/	-1.4%	/	2.8%	-5.6%	-8.9%	14.0%	-5.4%
CCCCC(=O)NC1(C(F)(F)F)C(=O)N(Cc2ccco2)C(C)=C1C(=O)OC (stereo not given)	2.2%	13.9%	-8.0%	1.3%	5.6%	5.3%	9.8%	-14.2%
CCN1CCC[C@H]1CNC(=O)c1c(O)c(Cl)cc(Cl)c1OC	-4.2%&5.2%	-12.0%&-4.8%&-12.0%&-12.0%&-12.0%&-12.0%&-12.0%	-4.3%&-3.0%	-1.3%	-24.0%&-8.8%	-4.2%	0.3%	-3.8%
O=[N+]([O-])c1cccc(CN2CCN(c3ncccn3)CC2)c1	/	?	/	0.4%	-3.4%	0.1%	10.5%	8.9%
CC(C)COc1ccc(C(=O)Nc2cc(-c3ccccc3)no2)cc1	-8.3%	?	-5.0%	/	20.4%	/	?	/
COc1cccc(CN2CCNC(=O)C2CC(=O)NC2CCCC2)c1OC (stereo not given)	/	-16.4%	/	1.1%	-8.9%	2.2%	6.7%	-15.8%
O=C(N/N=C/c1c[nH]c2ccccc12)c1ccc(O)c(O)c1	/	17.5%	/	0.5%	14.4%	-2.3%	14.9%	-1.3%
Cc1ccc(-c2c(C)n([O-])c3c([n+]2=O)CCC3)cc1	-0.7%	24.9%	-6.3%	29.6%	-11.4%	-2.3%	8.5%	11.7%
CC(=O)NC(O)C(=O)c1ccco1 (stereo not given)	0.1%	13.8%	-4.3%	2.3%	21.8%	0.7%	-8.5%	5.0%
O=C(CS(=O)(=O)c1ccc(F)cc1)NCc1ccccc1	/	21.8%[46.1 µM]	/	-1.5%	-15.3%	10.4%	-3.9%	/
CCn1c(SCC(=O)c2cc(OC)ccc2OC)nnc1C(C)C	-1.3%	16.1%	8.3%	1.5%	-3.5%	-0.7%	7.9%	1.5%
CSc1ccc(NC(=O)Cn2nnnc2-c2ccccc2F)cc1	0.0%	26.6%[46.1 µM]	1.0%	/	14.9%	/	7.2%[46.1 µM]	/
CC(=O)Nc1ccc(NC(=O)c2ccc([N+](=O)[O-])cc2Cl)cc1	/	/	/	2.6%	-3.2%	13.2%	/	-1.7%
CCOc1ccc(OCC)c(NC(=O)Nc2ccc3c(c2)N(C)C(=O)CS3)c1	-4.4%	/	4.2%	-4.6%	?	-0.1%	/	28.7%
CCN(C(=O)Cn1c(=O)oc2cc(S(=O)(=O)N3CCCC3)ccc21)c1ccc(OC)cc1	/	/	/	0.3%	0.0%	-3.7%	/	-17.9%
CCN(CC)CCCNC(=O)c1cc(Nc2ccc(OC)cc2)nc2ccccc12	/	?	/	2.0%	15.9%	-20.5%	-15.3%	2.1%
O=C1NC(=O)C(CSc2ccccc2)(c2ccccc2)N1 (stereo not given)	/	10.3%[46.1 µM]	/	/	-9.0%	-16.0%	-16.0%[46.1 µM]	/
O=C(COc1ccc(Cl)cc1)NNC(=S)NCc1ccccc1	/	-0.9%[46.1 µM]	/	15.8%	-3.1%	-2.1%	0.0%	5.62µM*
Cn1ncc([N+](=O)[O-])c1C(=O)NCc1ccccc1	/	/	/	1.5%	4.3%	21.1%	/	-1.5%
CCC(C)NC(=O)c1ccc2c(c1)nc1n2CCCCC1 (stereo not given)	2.7%	/	-13.3%	/	30.0%	/	-4.1%[46.1 µM]	/
CCCCn1c(=O)c(Cc2ccccc2)c(O)c2ccccc21	-0.3%	?	?	-0.9%	-12.2%	-8.4%	2.8%	10.9%
O=C(COC(=O)c1cccc(S(=O)(=O)N2CCCC2)c1)Nc1ccccc1Cl	/	1.5%[46.1 µM]	/	-0.7%	3.8%	-18.9%	12.2%	/

As a short view, some entries already given.
SMILES	Cruzain inh Det	MARV entry inh	Cruzain noTriton	SARS PLpro yeast	2A StopGo	RE007 growth inh	Lassa entry inh	NS1 inh
CC(=O)NC(O)C(=O)c1ccco1 (stereo not given)	0.1%	13.8%	-4.3%	2.3%	21.8%	0.7%	-8.5%	5.0%
O=C(CS(=O)(=O)c1ccc(F)cc1)NCc1ccccc1	/	21.8%[46.1 µM]	/	-1.5%	-15.3%	10.4%	-3.9%	/
CCn1c(SCC(=O)c2cc(OC)ccc2OC)nnc1C(C)C	-1.3%	16.1%	8.3%	1.5%	-3.5%	-0.7%	7.9%	1.5%
CSc1ccc(NC(=O)Cn2nnnc2-c2ccccc2F)cc1	0.0%	26.6%[46.1 µM]	1.0%	/	14.9%	/	7.2%[46.1 µM]	/
CC(=O)Nc1ccc(NC(=O)c2ccc([N+](=O)[O-])cc2Cl)cc1	/	/	/	2.6%	-3.2%	13.2%	/	-1.7%

The list goes on:
SMILES	Cruzain inh Det	MARV entry inh	Cruzain noTriton	SARS PLpro yeast	2A StopGo	RE007 growth inh	Lassa entry inh	NS1 inh
COc1cccc(N(C(=O)c2nc3nccc(C)n3n2)c2nc3ccccc3s2)c1	-8.0%	?	?	-40.7%	2.6%	-15.3%	?	-17.2%
O=C(c1ccccc1Oc1ccc(C(F)(F)F)cc1[N+](=O)[O-])N1CCOCC1	1.0%	-7.9%	2.6%	8.8%	-25.4%	12.8%	3.7%	10.1%
CCOC(=O)CSc1nc2c([nH]c3ccccc32)c(=O)n1-c1ccc(OCC)cc1	0.5%	/	10.8%	/	0.0%	/	6.9%[46.1 µM]	/
N#Cc1cc2c(nc1SCC(O)CS(=O)(=O)Cc1ccccc1)CCCC2 (stereo not given)	-4.5%	-14.1%	-7.0%	2.2%	/	4.5%	11.6%	-0.8%
CCCN1CCN(CCCNC(=O)C(CC)n2nc(C)n3c(cc4occc43)c2=O)CC1 (stereo not given)	-2.2%	0.3%&-9.2%[46.1 µM]	-11.4%	-0.4%	10.0%&-3.6%	-4.6%	17.1%&11.2%[46.1 µM]	11.7%
CC(=O)Nc1ccc(C(=O)OCC(=O)N(C)C2CCCCC2)cc1	/	-19.6%[46.1 µM]	/	1.8%	6.5%	13.9%	19.4%	/
CCOc1ccc(-c2cc(C)n3nc(C(=O)Nc4cc(Cl)ccc4O)cc3n2)cc1	-3.8%	?	26.4%	/	-16.7%	/	-0.3%[46.1 µM]	/
COc1ccc(NC(=O)Cn2nnc(-c3ccccc3F)n2)cc1Cl	-5.8%	-20.2%	-17.0%	5.0%	3.7%	4.1%	-17.9%	12.6%
Cc1cc(-c2ccco2)n2c(nc3ccccc32)c1C#N	-0.6%	-0.3%	2.5%	5.2%	?	22.0%	-2.0%	2.7%
CC(=O)c1cn(CC(=O)Nc2ccccc2)c2ccccc12	3.1%	?	?	0.8%	?	8.2%	?	1.4%
N#CCSc1nc(Nc2ccc3c(c2)OCO3)c2ccccc2n1	-5.9%	?	-3.4%	1.4%	22.4µM*	-13.3%	-17.3%	-10.4%
CN(/N=C/c1ccc(Cl)cc1Cl)c1ncc(Cl)cc1C(F)(F)F	/	/	/	1.7%	-1.3%	22.9%	/	-6.3%
CC(/C=N/n1c(-c2cccnc2)n[nH]c1=S)=C\c1ccccc1	4.1%	-7.1%	-13.7%	-5.4%	0.0%	11.4%	-15.4%	21.1%
CN(C)c1ccc(N=Nc2ccccc2Br)cc1	/	/	/	-6.3%	-54.5%	-8.6%	/	-2.8%
CCN(CC(=O)Nc1c(F)cccc1F)C(=O)c1nc2nc(C)cc(C)n2n1	/	-0.6%	/	0.5%	-24.3%	1.5%	0.8%	/
O=C(NN=C1CCCCCCCCCCC1)c1ccncc1	/	23.6%[46.1 µM]	/	1.4%	-7.6%	-6.8%	-0.3%	/
Cc1cc(Cl)ccc1OCC(=O)Nc1ccccc1NS(=O)(=O)c1cccs1	/	/	/	-0.7%	17.8%	-1.0%	/	?
S=c1c2c(nc3nc[nH]n13)CCC2	/	/	/	-7.1%	?	?	/	-8.6%
CSc1nsc(SC)c1NC(=O)OC1CCCCC1	-0.4%	13.1%[46.1 µM]	-6.5%	/	-17.6%	-23.8%	3.5%	-36.4%
Fc1ccc(CNC2CCN(Cc3ccccc3)CC2)cc1	/	/	/	1.1%	-5.1%	5.0%	/	16.1%
COc1cccc(C(=O)N(Cc2cccs2)C2CCS(=O)(=O)C2)c1 (stereo not given)	/	2.2%[14.2 µM]	/	-0.2%	-13.8%	-10.3%	-6.4%	-0.2%
Cn1nc(C(F)(F)F)c(-c2ccccc2)c1NC(=O)CCC(=O)O	/	2.3%[46.1 µM]	/	-0.2%	3.5%	-12.5%	21.2%	-1.4%
CCCCCCC1/C(=N/O)CCC1C(=O)OC (stereo not given)	2.8%	10.1%	3.1%	-0.2%	?	0.3%	-2.8%	-1.9%
CCCS(=O)(=O)C(=C1Nc2ccccc2N1)S(=O)(=O)CCC	0.7%	8.4%	15.7%	-8.5%	-8.1%	1.2%	-3.2%	2.0%
CC(NS(=O)(=O)c1ccc(Cl)cc1)C(=O)NCCC1=CCCCC1 (stereo not given)	/	?	/	2.1%	1.6%	-27.4%	-3.0%	1.0%
O=C(Nc1ccc2c(c1)OCCO2)c1cccnc1Oc1ccccc1	/	/	/	-2.1%	-18.1%	-5.9%	/	-8.9%
